FPR: FPR binders displacing fluorescent formyl peptide, primary screen, U937-FPR cells, fMLFK-FITC, flow cytometry (AID 362); inhibition, %; 1% of 4,300 active; U937-FPR cells, fMLFK-FITC displacement, flow cytometry; active compounds read high; test concentration not given here; most inactive calls were filed without a number and no value below 0 was filed;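 active = inhibition of labelled peptide binding to the formyl peptide receptor of at least 65%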;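 note: plate controls were buffer control wells for no effect and unlabeled fMLFF blocking peptide for full effect; higher means less cell fluorescence so more probe displaced; part of the set was picked by virtual screening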
* = called active by the depositor; i = inactive.

SMILES	FPR
CCSCCOC(=O)C1=C(C)NC2=C(C(=O)C(C(=O)OC)C(C)C2)C1c1cccc(OCc2ccccc2)c1 (configuration not stated)	i
COc1ccc(CN2CCN(c3c4c(c(C#N)c5nc6ccccc6n35)CCC4)CC2)cc1	i
Cc1ccc(S(=O)(=O)NCC2CCC(C(=O)NCCCOC(C)C)CC2)cc1 (configuration not stated)	i
Cc1sc2ncn(CC(=O)NCCCN3CCC(C)CC3)c(=O)c2c1S(=O)(=O)N1CCC(C)CC1	i
CCSCCOC(=O)C1=C(C)NC2=C(C(=O)C(C(=O)OC)C(C)C2)C1c1ccc(N(C)C)cc1 (configuration not stated)	60
CC1=C(C(C)C2NCC(C)CC2O)CCC2C3=C(C(=O)C12)C1(C)CCC(O)CC1=CC3 (configuration not stated)	i
CCOC(=O)c1cc2c(=O)n3ccccc3nc2n(CC(C)C)c1=NC(=O)c1ccc2c(c1)OCO2	i
Cc1ccc(CNC(=O)C2CCN(S(=O)(=O)N(CC(C)C)CC(C)C)CC2)cc1	i
COC(=O)C1C(=O)C2=C(CC1C)NC(C)=C(C(=O)OC(C)C)C2c1ccc(C)o1 (configuration not stated)	33
CCOc1cc(C2C3=C(CC(C)(C)CC3=O)OC3=C2C(=O)CC(C)(C)C3)ccc1OC(=O)c1cccc(OC)c1	i
O=C(NCCc1ccc(Cl)cc1)C1CCC(CNS(=O)(=O)c2cccs2)CC1 (configuration not stated)	15
O=C(Nc1cccc([N+](=O)[O-])c1)C1CC=CCC1C(=O)N1CCCCC1 (configuration not stated)	i
N#Cc1c2c(c(N3CCN(C4CCCCC4)CC3)n3c1nc1ccccc13)CCC2	i
CC1=C(C(=O)OC2CCCCC2)C(c2cccc(O)c2)C2=C(CCCC2=O)N1 (configuration not stated)	i
COC(=O)C1C(=O)C2=C(CC1C)NC(C)=C(C(=O)OCCOC(C)C)C2c1cccc(F)c1 (configuration not stated)	2
CC(C)Cn1cc(C(=O)NCc2cccs2)c2c3ccccc3n(C)c2c1=O	6
CCOc1cc(C2C3=C(CC(C)(C)CC3=O)OC3=C2C(=O)CC(C)(C)C3)ccc1OC(=O)c1cccc(C)c1	i
C=C(C)Cn1c(SCC(=O)O)nnc1-c1ccc(OC)cc1	12
COc1ccc(C2(CNC(=O)c3cccc([N+](=O)[O-])c3)CCCCC2)cc1OC	2
COc1ccc(C2(CNC(=O)c3ccc(OC)c(OC)c3)CCOCC2)cc1	i
CCOC(=O)C1=NN(C(=O)c2cccc([N+](=O)[O-])c2)C(O)(C(C)(C)C)C1 (configuration not stated)	i
O=C(O)c1ccc([N+](=O)[O-])c2c1NC(c1ccccc1)C1CC=CC21 (configuration not stated)	33
CCN(CC)CCOC(=O)NCC1CC(C(C)=O)C1(C)C (configuration not stated)	8
COC(=O)C1C(=O)C2=C(CC1C)NC(C)=C(C(=O)OC1CCCCC1)C2c1ccc(N(C)C)cc1 (configuration not stated)	13
CCCN(CCC)Cc1c(O)ccc2c(=O)c(Oc3ccc(C)cc3)c(C(F)(F)F)oc12	i

Given with each value named: 4 of the compounds above
Structure: COC(=O)C1C(=O)C2=C(CC1C)NC(C)=C(C(=O)OCCOC(C)C)C2c1cccc(F)c1 (configuration not stated)
- FPR: 2

Structure: CC(C)Cn1cc(C(=O)NCc2cccs2)c2c3ccccc3n(C)c2c1=O
- FPR: 6

Structure: CCOc1cc(C2C3=C(CC(C)(C)CC3=O)OC3=C2C(=O)CC(C)(C)C3)ccc1OC(=O)c1cccc(C)c1
- FPR: i

Structure: C=C(C)Cn1c(SCC(=O)O)nnc1-c1ccc(OC)cc1
- FPR: 12

Continuation.
SMILES	FPR
COc1cccc(C(C(F)(F)F)P(C)(=O)O)c1 (configuration not stated)	21
O=C(C1CCC(CNS(=O)(=O)c2ccc(Br)s2)CC1)N1CCN(c2ccccc2)CC1 (configuration not stated)	i
COc1ccc(C2C3=C(CC(C)(C)CC3=O)OC3=C2C(=O)CC(C)(C)C3)cc1	60
COc1ccccc1/C=C/C1C(C(=O)OCC(C)C)=C(C)N=C2SCCC(=O)N21 (configuration not stated)	i
O=C(NC1(C(F)(F)F)C(=O)Nc2c1c(=O)[nH]c(=O)n2CCc1ccccc1)c1cccnc1 (configuration not stated)	i
C=CCOC(=O)C1=C(C)NC(=O)NC1c1cc(C(C)(C)C)c(O)c(C(C)(C)C)c1 (configuration not stated)	3
CCOc1ccc2c(c1)C(C)CC(C)(C)N2C(=O)NC1CCCCC1 (configuration not stated)	i
CC1=CCC(C(=O)O)C(C(=O)Nc2nnc(C)s2)C1 (configuration not stated)	i
CCOC(=O)CSc1nc2ccsc2c(=O)n1CCCCCC(=O)NCc1ccc(C)cc1	i
C=CCSc1nc2c(c(=O)n1C1CCOC(C)(C)C1)C1(CCCCC1)Cc1ccccc1-2 (configuration not stated)	i
CCCCC(SC1=Nc2ccccc2C2=NC(Cc3c[nH]c4ccccc34)C(=O)N12)C(=O)OCC (configuration not stated)	i
COc1ccc(NS(=O)(=O)c2ccc3c(c2)[C@H]2C=CC[C@H]2[C@@H](c2ccc(C(=O)O)cc2)N3)cc1	18
CCOc1ccc(C2C(C(=O)OC3CCCC3)=C(C)NC3=C2C(=O)C(C(=O)OC)C(C)C3)cc1OC (configuration not stated)	10
Cn1c2ccccc2c2c(C(=O)N3CCN(Cc4ccc5c(c4)OCO5)CC3)cn(C3CCCC3)c(=O)c21	2
CCCc1cc(=O)oc2cc(OC(C(=O)OCC)c3ccccc3)c(Cl)cc12 (configuration not stated)	i
CCCCn1c(=NC(=O)c2cccnc2)c(C(=O)OCC)cc2c(=O)n3ccccc3nc21	3
CCOC(=O)C(NC(=O)Nc1cccc(C)n1)(OCC(F)(F)F)C(F)(F)F (configuration not stated)	i
CCCCn1c(SCC(=O)Nc2ccccc2OC)nc2ccc(N3CCOCC3)cc2c1=O	i
CCOCCCNC(=O)C1CCN(S(=O)(=O)N(CC(C)C)CC(C)C)CC1	i
O=C1C2C3CCC(C3)C2C(=O)N1c1cccc(O)c1 (configuration not stated)	1
COc1ccccc1-c1c(C(F)(F)F)oc2c(CN(C)C)c(O)ccc2c1=O	18
CCSC1=N/C(=C\c2cc(C(C)(C)C)c(O)c(C(C)(C)C)c2)C(=O)S1	i
CCC(C)OC(=O)C1=C(C)NC2=C(C(=O)C(C(=O)OC)C(C)C2)C1c1ccccc1C (configuration not stated)	i
CCCOc1ccc(C2C(C(=O)OCCOCC)=C(C)NC3=C2C(=O)C(C(=O)OC)C(C)C3)cc1 (configuration not stated)	9
CCCOC(=O)C1=C(C)NC2=C(C(=O)C(C(=O)OC)C(C)C2)C1c1cccc(F)c1 (configuration not stated)	i
(further entries)
SMILES	FPR
O=C1C2C3C=CC(C2C(=O)N1c1ccccn1)C1C2C(=O)N(c4ccccn4)C(=O)C2C31 (configuration not stated)	4
O=C1CCCC(=O)N1c1ccc(N2CCCC(CO)C2)c([N+](=O)[O-])c1 (configuration not stated)	i
CC1CCN(S(=O)(=O)c2cn(CC(=O)Nc3ccc(C(F)(F)F)cc3)c(=O)c3ccccc23)CC1	i
CCCOc1cc2oc(=O)c3c(c2cc1CC)CCCC3	i
COc1cc2c(C(=O)N(C)c3cc(C)ccc3C)cn(CC(C)C)c(=O)c2cc1OC	i
CSC1=C(C#N)C2(CCCCC2)C(c2nc(-c3ccc(C)cc3)cs2)C(N)=N1 (configuration not stated)	i
CC(=O)Nc1ccc(S(=O)(=O)NCC2CCC(C(=O)NC(C)c3ccc4c(c3)OCCO4)CC2)cc1 (configuration not stated)	i
CCC(C)NC(=O)CSc1nc2cc3c(cc2c(=O)n1CCCCCC(=O)NCc1ccc2c(c1)OCO2)OCO3 (configuration not stated)	i
Cc1c(CN2CCCCC2)c(O)n(CC(C)O)c(=O)c1C#N (configuration not stated)	i
CCOC(=O)C1CCN(C(=O)c2cn(CC(C)C)c(=O)c3c2c2ccccc2n3C)CC1	5
CC(C)Cn1cc(C(=O)N2CCC(Cc3ccccc3)CC2)c2c3ccccc3n(C)c2c1=O	i
CCOC(=O)C1=C(C)NC2=C(C(=O)C(C(=O)OC)C(C)C2)C1c1ccc(C)s1 (configuration not stated)	18
COC(=O)C1=C(C)NC2=C(C(=O)CC(c3cccs3)C2)C1c1cccc(C(F)(F)F)c1 (configuration not stated)	i
Cc1cc(C)c2c(=O)cc(C(F)(F)F)oc2c1[N+](=O)[O-]	i
CC(C)CC(NC(=O)c1ccccc1)C(=O)OCc1cnc(-c2ccccc2)o1 (configuration not stated)	i
CC(C)CCn1c(CN2CCN(c3cccc(Cl)c3)CC2)nc2c1c(=O)n(C)c(=O)n2C	i
CCOc1ccc2c(c1)C(C)=CC(C)(C)N2C(=O)c1sc2ccccc2c1Cl	i
COc1ccc(NC(=O)CCCCCn2c(SCC(=O)NCCC(C)C)nc3ccsc3c2=O)cc1	i
O=C1c2ccccc2C(=O)N1c1ccc(N2C(=O)C3C4CCC(C4)C3C2=O)cc1 (configuration not stated)	32
COc1cc(C2C(C(=O)OC3CCCCC3)=C(C)NC3=C2C(=O)CCC3)ccc1OCc1ccccc1 (configuration not stated)	9
CCOc1ccc(C2C(C(=O)OC3CCCCC3)=C(C)NC3=C2C(=O)CCC3)cc1OC (configuration not stated)	20
CC1(C)CC(=O)C2=C(C1)OC(N)=C(C#N)C2C1CC=CCC1 (configuration not stated)	i
COc1cc2c(C(=O)N3CCCC3)cn(CC(C)C)c(=O)c2cc1OC	i
CCCOCCOC(=O)C1=C(C)NC2=C(C(=O)C(C(=O)OC)C(C)C2)C1c1cccc(OCC)c1 (configuration not stated)	43
Cc1ccc(Cn2nc(C)c(NC(=O)C3CCCCC3C(=O)O)c2C)cc1 (configuration not stated)	4
(more compounds)
SMILES	FPR
CCCOCCOC(=O)C1=C(C)NC2=C(C(=O)C(C(=O)OC)C(C)C2)C1c1ccc(Cl)cc1 (configuration not stated)	26
CCOCCOC(=O)C(C)Oc1ccc2c(=O)c(-c3ccccc3OC)c(C(F)(F)F)oc2c1 (configuration not stated)	4
COc1cc2c(C(=O)N3CCC(C)CC3)cn(CC(C)C)c(=O)c2cc1OC	i
C=C(C)CSc1nc2c(c(=O)n1C1CCOC(C)(C)C1)C1(CCCCC1)Cc1ccccc1-2 (configuration not stated)	i
COc1ccc(OC)c(C2C3=C(CC(C)(C)CC3=O)Nc3ncnn32)c1 (configuration not stated)	i
CC(=O)Oc1ccc(C2Nc3c(C(=O)O)ccc([N+](=O)[O-])c3C3C=CCC32)cc1 (configuration not stated)	i
CC(C)(C)c1ccc(Oc2c(C(F)(F)F)oc3cc(O)ccc3c2=O)cc1	4
O=C(O)c1cc2nc3c(c(C(F)(F)F)n2n1)CCC3	i
COc1ccc(S(=O)(=O)NCC2CCC(C(=O)NCc3cccnc3)CC2)cc1 (configuration not stated)	i
Cc1ccc(C2C(C#N)=C(N)N(c3ncn[nH]3)C3=C2C(=O)CC(C)(C)C3)cc1 (configuration not stated)	16
Cc1ccc(CNC(=O)c2cn(CC(C)C)c(=O)c3c2c2ccccc2n3C)cc1	1
O=C(c1ccc(S(=O)(=O)N2CCCC2)cc1)N1CCC(CN2C(=O)c3cccc4cccc(c34)C2=O)CC1	i
Cc1cc(OCC(=O)Oc2ccc3c4c(c(=O)oc3c2)CCC4)cc(C)c1Cl	3
CC1(C)CC(=O)C2=C(C1)Nc1nc(C(F)(F)F)nn1C2c1cccc(Cl)c1 (configuration not stated)	i
CC(C)OC(=O)COc1cc2oc(=O)c3c(c2cc1Cl)CCC3	i
CSc1ccc(C2C(C#N)=C(N)N(c3ncn[nH]3)C3=C2C(=O)CC(C)(C)C3)cc1 (configuration not stated)	i
CCCCn1c(SCC(=O)NCCc2ccccc2)nc2ccsc2c1=O	i
COC(=O)CNc1c(-c2ccccc2)nc2ccc(Br)cn12	25
CCOC(=O)C1=C(N)OC2=C(C(=O)CC(C)(C)C2)C1c1ccc(O)cc1 (configuration not stated)	2
O=C(NC1(C(=O)NC2CCCCC2)CCCCC1)c1ccccn1	32
COc1ccc(C2C3=C(CC(C)(C)CC3=O)OC3=C2C(=O)CC(C)(C)C3)c(OC)c1	18
Cc1ccc2nc(NC(=O)C3CCC(CNS(=O)(=O)c4ccc(Br)s4)CC3)sc2c1 (configuration not stated)	i
Cc1cccc(CN2CCC(CNC(=O)c3cn(CC(C)C)c(=O)c4c3c3ccccc3n4C)CC2)c1	7
COC(=O)c1c(-c2ccc(F)cc2)csc1NC(=O)C1CCCCC1C(=O)O (configuration not stated)	72*
COc1ccc(CCNC(=O)c2cn(CC(C)C)c(=O)c3cc(OC)c(OC)cc23)cc1OC	i

Arranged by value in FPR (descending): 3 of the compounds above
compound | FPR
CCOCCOC(=O)C(C)Oc1ccc2c(=O)c(-c3ccccc3OC)c(C(F)(F)F)oc2c1 (configuration not stated) | 4
Cc1cc(OCC(=O)Oc2ccc3c4c(c(=O)oc3c2)CCC4)cc(C)c1Cl | 3
Cc1ccc(CNC(=O)c2cn(CC(C)C)c(=O)c3c2c2ccccc2n3C)cc1 | 1

A second format for some results above.
| FPR | mol |
| --- | --- |
| 3 | Cc1cc(OCC(=O)Oc2ccc3c4c(c(=O)oc3c2)CCC4)cc(C)c1Cl |
| i | CC1(C)CC(=O)C2=C(C1)Nc1nc(C(F)(F)F)nn1C2c1cccc(Cl)c1 (configuration not stated) |
| i | CC(C)OC(=O)COc1cc2oc(=O)c3c(c2cc1Cl)CCC3 |
| i | CSc1ccc(C2C(C#N)=C(N)N(c3ncn[nH]3)C3=C2C(=O)CC(C)(C)C3)cc1 (configuration not stated) |

(more compounds)
SMILES	FPR
COC(=O)c1cccc(NC(=O)C23CC4CC(C2)CC(n2cncn2)(C4)C3)c1	i
O=C(C1CCC(CNS(=O)(=O)c2ccc(Br)s2)CC1)N1CCCCC1 (configuration not stated)	16
COC(=O)C1=C(N)OC2=C(C(=O)CC(C)(C)C2)C1c1ccc(C(=O)OC)cc1 (configuration not stated)	12
CC1(C)CC(=O)C2=C(C1)N(c1ccccc1C#N)C1=C(C(=O)CC(C)(C)C1)C2c1ccc(F)cc1	i
C=C(C)Cn1c(SCC(N)=O)nc2sc3c(c2c1=O)CCC3	i
COc1ccc(Oc2coc3c(CN4CCCCCC4)c(O)ccc3c2=O)cc1	i
COc1cc2c(C(=O)N(C)c3ccc(Cl)cc3)cn(CC(C)C)c(=O)c2cc1OC	i

From PubChem

These rows are one share of the data (hit frequency here may not be typical).
